SmPrx2 inh: Schistosoma Mansoni Peroxiredoxins (Prx2). S. mansoni Prx2 activity coupled to TGR/GSH (TGR is thioredoxin glutathione reductase), NADPH fluorescence loss, qHTS; some inactives read as strong as hits. Potency, µM. 0.07% of 65,000 active. AID 448, 2006; active means full or partial inhibition curve with a strong effect at the top dose; inconclusive means weaker partial or single-point curve; inactive means no accepted curve; also: series up to 57 µM; many of its hits are not listed in these tables
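Purified S. mansoni TGR and Prx2 in pH 7.4 phosphate buffer with EDTA and Tween-20 were preincubated with compounds for 15 min. Further NADPH/GSH was added, then a 2.5 mM H2O2 aliquot initiated turnover, followed kinetically by NADPH fluorescence.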
Anthrax LT inh: qHTS Assay for Anthrax Lethal Toxin Internalization; Cells, anthrax lethal toxin internalization, FRET ratio (460/530); Potency, µM (series often up to 40 µM), for the others: top-dose activity change, negative = inhibition, usual class: inhibitors; 0.67% of 70,000 active; active = well fitted falling ratio curve with the 530 nm signal flat; inconclusive = other ratio curves, or a change in one channel alone; inactive = flat curves in the ratio and both channels; the % refers to the ratio; also: % is scaled to controls: 0 for no effect and ±100 for the full control effect; nearly all actives have a fitted effect of over 50% in size; tested in ME-180 cells; beta-lactamase reporter
Starred values were filed as active, the others as inactive; ? = inconclusive; / = no result given; & = joins results of further samples; [ ] = remark or other dose. Potency is read from the fitted curve at half-maximal effect.

SMILES	SmPrx2 inh	Anthrax LT inh
CC1(C)CC(=O)C2=C(C1)N(CCN1CCOCC1)C1=C(C(=O)CC(C)(C)C1)C2c1cccc(F)c1	>57	?
O=C(CCCSc1nc2sc3c(c2c(=O)[nH]1)CCC3)NCCO	>57	6.7%
COc1ccccc1-n1c(CNC(=O)c2ccc(S(=O)(=O)N3CCOCC3)cc2)n[nH]c1=S	>57	10.1%
C1=C(c2ccccc2)CCN(c2ncnc3nc[nH]c23)C1	>57	13.0%
CN1Cc2cc(C(=O)c3cc(Cl)cc(CSc4ncccn4)c3O)cnc2NC1=O	>57	?
COc1ccccc1Nc1nc(N)nc(CN2CCc3ccccc3C2)n1	>57	4.0%
CC1Cc2ccccc2N1C(=O)CSc1nc(-c2ccco2)cc(C(F)(F)F)n1 (configuration not stated)	>57	-18.2%
CCOC(=O)c1sc(N(Cc2ccccc2)C(=O)CSc2nnc(C3CC3)n2N)nc1C	>57	1.9%
C=CCn1c(=O)/c(=C/c2ccc(O)cc2)s/c1=C(/C#N)c1nnc2n1CCCCC2	>57	-7.4%
NCCNCCNCCN	/	-5.0%
O=C(CCCNS(=O)(=O)c1cccc2nsnc12)NCCc1ccccc1	>57	12.7%
CC(NC(=O)COc1ccccc1)C(=O)NC1=NCCS1 (configuration not stated)	/	-7.9%
CCOC(=O)c1sc2nc(N3CCOCC3)c3c(c2c1N)CCCC3	>57	-7.7%
COc1ccccc1N1CCN(S(=O)(=O)c2cn(C)c(=O)n(C)c2=O)CC1	>57	19.1%
COC(=O)CSc1nc2cc(C)ccc2cc1C#N	>57	-10.3%
CCCCN1CN(S(=O)(=O)c2cccs2)c2nc3ccccc3nc21	>57	7.8%
COc1ccc(Oc2ncc3nc(-c4cccs4)c(=O)n(Cc4cccc(OC)c4)c3n2)cc1	>57	?
COc1ccc(-c2cc(C(=O)Nc3cnn(Cc4ccccc4C)c3)no2)cc1OC	>57	-10.4%
CCn1c(COc2ccccc2)nnc1SCC(=O)Nc1ccc2c(c1)OCCO2	>57	-2.5%
CCCCCC1CC(=O)N(Cc2ccc(Cl)cc2)C(=O)N1 (configuration not stated)	>57	-6.5%
Ic1ccc2c(c1)N(c1ccccc1)c1cc(Nc3ccc4nc5ccc(I)cc5[n+](-c5ccccc5)c4c3)ccc1N2	>57	-5.5%[8 µM]
N#C/C(=C1/CCCCCN1)c1nc2ccccc2s1	>57	?
Cn1c(SCC(=O)C(C)(C)C)nnc1-c1cccnc1	>57	-9.3%
c1ccc2c(c1)CCC[C@@H]2C1=NCCN1	>57	-0.1%[3.58 µM]
Cn1c(=O)[nH]c(=O)c2c1nc(N(CCO)Cc1ccccc1)n2CCCc1ccccc1	>57	-6.4%
C[C@@]12CC[C@H](O)C[C@@H]1CC[C@H]1[C@@H]2C[C@@H](O)[C@]2(C)[C@@H](C3=CC(=O)OC3)CC[C@]12O	>57	?
CCCCCC(=O)Nc1cc(N(C)C)nc2ccccc12	/	-9.6%
CC(C)OCCCNC(=O)CN1C(=O)CC(C)(C)S(=O)(=O)c2ccccc21	>57	-2.3%
O=C(COC(=O)C12CC3CC(CC(C3)C1)C2)N1CCN(S(=O)(=O)c2ccccc2)CC1	>57	-0.1%
CC1CC(c2ccccc2)n2nc(NC(=O)c3ccco3)nc2N1 (configuration not stated)	>57	/
COc1ccccc1NC(=O)N1CCCC1C(=O)NC1CCCCC1 (configuration not stated)	>57	9.2%
CN(C(=O)COC(=O)CNS(=O)(=O)/C=C/c1ccccc1)C1CCS(=O)(=O)C1 (configuration not stated)	>57	-20.5%
CCC(=O)Nc1ccccc1C(=O)OCC(=O)Nc1ccc(S(N)(=O)=O)cc1	>57	-11.1%
COc1ccc(NC(=O)N2CCCC3(CCN(C(=O)c4csnn4)CC3)C2)cc1	>57	6.6%
CC(C)N1C(=O)C2ON(c3ccccc3)C(c3cccs3)C2C1=O (configuration not stated)	>57	?
COc1cc(NS(=O)(=O)c2ccc(NC(=O)CSC3=NCCS3)cc2)nc(OC)n1	>57	-3.6%
COc1cc(C2C(C#N)=C(N)Oc3n[nH]c(-c4ccncc4)c32)cc(OC)c1OC (configuration not stated)	>57	0.7%
Cc1cc2ncn(CC(O)COc3cccc(C(=O)O)c3)c2cc1C (configuration not stated)	>57	-6.9%
Cc1ccc(C)c(NC(=O)c2ccccn2)c1	>57	?
O=c1c2ccccc2nnn1CSc1nnc2ccccn12	>57	-4.1%
Oc1cc(NCc2cccnc2)ccc1-c1nc2ccccc2o1	>57	?
Cc1ccc(O)c(CN2CCN(c3ccccc3)CC2)c1	>57	-0.4%
Cc1csc(Cn2c(CN(C)C)nc3ccccc3c2=O)n1	>57	-5.2%
CS(=O)(=O)N(CC(=O)N1CCCCC1)c1sc2c(c1C#N)CCCC2	>57	-9.2%
COCCN(C(=O)c1ccccc1)c1nnc(-c2cccnc2)s1	>57	?
COc1ccc(OC)c(NC(=O)CSC2=NCCS2)c1	>57	3.7%
CC(=O)Nc1ccccc1C=C1c2ccccc2-c2ccccc21	>57	?
CC1(C(=O)O)CC(C)(C(=O)O)CC(C)(C(=O)O)C1 (configuration not stated)	>57	-2.9%

Gathered by group, the entries above containing a COOH group
SMILES	SmPrx2 inh	Anthrax LT inh
Cc1cc2ncn(CC(O)COc3cccc(C(=O)O)c3)c2cc1C (configuration not stated)	>57	-6.9%
CC1(C(=O)O)CC(C)(C(=O)O)CC(C)(C(=O)O)C1 (configuration not stated)	>57	-2.9%

More entries
SMILES	SmPrx2 inh	Anthrax LT inh
CNc1nc(C)c(C(=O)OCC(=O)OC)s1	/	-2.1%
CCOC(=O)N(Cc1ccccc1)C(C(=O)O)C(C(=O)O)N(Cc1ccccc1)C(=O)OCC (configuration not stated)	>57	?
CC12CCC(C(=O)NCc3cccnc3)(OC1=O)C2(C)C (configuration not stated)	>57	0.4%
COC(=O)c1cccc(NC(=O)c2nn(C(C)C)c(=O)c3ccccc23)c1	>57	-27.9%
COc1ccccc1NS(=O)(=O)c1cccc2cccnc12	>57	-17.4%
C=CCSc1nc(N)c(C(=O)Nc2ccccc2C)cc1C(N)=O	>57	7.5%
CC(C)COC(=O)NCCCOC(=O)Nc1ccccc1	>57	0.7%
COc1ccc(NC(=O)c2cc(C(C)C)on2)cc1OC	>57	-6.0%
COc1ccccc1-c1c(C)nn2c(N3CCN(c4ccccc4OC)CC3)cc(C)nc12	>57	-15.3%
OCCN1CCN(CC/C=C2\c3ccccc3Sc3ccc(C(F)(F)F)cc32)CC1	>57&>57	?
O=C(Cn1cc2c(n1)CCCCC2)NCCN1CCOCC1	>57	0.5%
CC(C)N(Cc1cc2ccccc2[nH]c1=O)C(=O)C1CCCCC1	>57	/

Copied from the list.
Result for C=CCSc1nc(N)c(C(=O)Nc2ccccc2C)cc1C(N)=O under Anthrax LT inh: 7.5%
Result for CC(C)COC(=O)NCCCOC(=O)Nc1ccccc1 under SmPrx2 inh: >57
Result for OCCN1CCN(CC/C=C2\c3ccccc3Sc3ccc(C(F)(F)F)cc32)CC1 under SmPrx2 inh: >57&>57
Result for COc1ccc(NC(=O)c2cc(C(C)C)on2)cc1OC under SmPrx2 inh: >57
Result for COc1ccccc1-c1c(C)nn2c(N3CCN(c4ccccc4OC)CC3)cc(C)nc12 under SmPrx2 inh: >57

(continued)
SMILES	SmPrx2 inh	Anthrax LT inh
O=C1c2ccccc2-c2nc3ncnn3c(-c3ccccc3Cl)c21	>57	0.8%
CCCn1c(=O)[nH]c(=O)c2c1nc(-c1ccccc1OC(F)F)n2CCOC	>57	-18.8%
CC(C)C[C@H](NC(=O)Nc1cccc(Cl)c1)C(=O)O	>57	-5.0%
COc1ccc(-c2cc(C(=O)OCC(=O)N(C)C)c3ccccc3n2)cc1	>57	2.4%
N#Cc1nc(-c2ccc(OCc3ccccc3)cc2)oc1N1CCOCC1	>57	-1.6%
CCOC(=O)COc1cc2c(C(=O)OCC)c(C)oc2cc1Br	>57	-20.9%
CCn1c(O)c(C=NCc2cccs2)c(=O)[nH]c1=O	>57	-7.2%
O=C(Nc1nc(-c2ccco2)cs1)c1ccccc1	>57	-22.1%
CC(=O)Nc1ccccc1OCC(=O)c1cc(C)n(Cc2cccs2)c1C	>57	-23.8%
NC(=O)OCCSc1nnc(-c2cccc(C(N)=S)c2)o1	>57	?
Cc1ccc(-n2nc(C)c3c2OC(N)=C(C#N)C3c2ccc(F)cc2)cc1 (configuration not stated)	>57	/
CC1OC2C(OC1C)N(S(C)(=O)=O)CCN2S(C)(=O)=O (configuration not stated)	/	1.1%
O=C(CSc1ccccn1)Nc1ccc(Br)cn1	>57	-1.1%
Cc1cc(N)n2nc(-c3ccccc3)cc2n1	>57	13.4%
N#C[C@H](Cc1ccc(O)cc1)c1ccc(O)cc1	>57	?
O=c1c(-c2ccc(Cl)cc2)nc2cnc(N3CCOCC3)nc2n1C1CC1	>57	?
Cc1nn(-c2ccccc2)c2c1C(c1cccnc1)N1C=C(S(=O)(=O)N3CCCCC3)C=CC1=N2 (configuration not stated)	>57	?
CC1(C)CC(=O)C2=C(C1)Oc1ncn(CCCn3ccnc3)c(=N)c1C2c1ccccc1 (configuration not stated)	>57	7.8%
COc1cc(C(=O)Nc2cc(C)ccn2)cc(OC)c1OC	>57	7.7%
O=C(CSc1ncccn1)NCc1ccccc1	>57	-5.6%
O=C(CN1C(=O)C2CC=CCC2C1=O)Nc1ccc(-c2nnc3n2CCCCC3)cc1 (configuration not stated)	>57	-3.6%
CC1CCC(NC(=O)C2c3ccccc3C(=O)N2CCCN2CCOCC2)CC1 (configuration not stated)	>57	13.3%
CCCc1nc2oc3c(NCC4CCCO4)ncnc3c2c2c1COC(C)(C)C2 (configuration not stated)	>57	/
NC(=O)c1oc2ccc(Cl)cc2c1N	>57	-27.9%
FC(F)(F)c1ccccc1-c1nc(NC2CCNCC2)c2ccccc2n1	>57	2.4%
O=C(NC(C(=O)c1ccccc1)n1ccc(=O)[nH]c1=O)c1ccccc1 (configuration not stated)	>57	-4.5%
CC(C)CN(CC(C)C)S(=O)(=O)N1CCC(C(=O)NCc2ccccn2)CC1	>57	4.8%
COc1cccc(NC(=O)CSc2nc(N)cc(N)n2)c1	>57	12.5%
CC1(C)CC(=O)C(C=NCCN2CCNC2=O)=C(O)C1	>57	8.1%
COc1c(NC(C)=O)c2ccccc2c2ccccc12	>57	-8.2%[8 µM]
Cn1c(=NC(=O)C2CCN(S(=O)(=O)c3cccs3)CC2)sc2ccccc21	>57	-10.0%
Cc1ccccc1NC(=O)CCC(=O)OCCCC(F)(F)C(F)(F)F	>57	1.6%
OC(c1ccc(Cl)cc1Cl)C(Cc1cccnc1)n1cncn1 (configuration not stated)	>57	?
COc1ccc(Oc2ncc3nc(-c4cc(F)cc(F)c4)c(=O)n(C[C@H]4CCCO4)c3n2)cc1	>57	?
COc1ccc(S(=O)(=O)NCc2ccco2)c2ccccc12	>57	0.3%
CCOC(=O)C1CCCN(Cc2ccc(O)c(OC)c2)C1 (configuration not stated)	/	-5.8%
O=C(Cn1cnc2c(nnn2Cc2ccc(F)cc2)c1=O)NC1CCCC1	>57	-6.9%
CC(c1ccccc1F)n1cc(C(=O)NCc2ccncc2)nn1 (configuration not stated)	>57	5.2%
COc1ccc(NC(=O)Cn2cnc3c(cnn3-c3ccc(C)c(C)c3)c2=O)c(OC)c1	>57	-8.1%
Cc1oc2ccc(OCC(N)=O)cc2c1C(=O)OC(C)C	>57	-20.3%
CCCNC(=O)CCC(NS(=O)(=O)c1ccc(C)cc1)C(=O)NCCC (configuration not stated)	>57	/
CC(=O)C(Sc1ccc2nnc(-c3ccncc3)n2n1)C(C)=O	>57	2.8%
CC(C)(CCC(C)(C)c1ccccc1)c1ccccc1	>57	-7.9%[8 µM]
COc1ccc(CCNC(=O)CSc2nc(C)nc3c2oc2ccccc23)cc1OC	>57	/
COc1ccc(NC(=O)N2CCCC3(CCN(C(=O)Oc4ccccc4)CC3)C2)cc1	>57	5.0%
COc1cccc(-n2nnc3c(=O)n(Cc4c(F)cccc4Cl)cnc32)c1	>57	-13.7%
COC(=O)C1=C(C)NC(=O)C1(NC(=O)c1cccnc1)C(F)(F)F (configuration not stated)	>57	2.2%
COc1cc(OC)c(-c2nnc(-c3ccc(OC)c(OC)c3OC)o2)cc1OC	>57	2.4%

Whole records, quoted from the list:
Cc1ccc(O)c(CN2CCN(c3ccccc3)CC2)c1 in the list: SmPrx2 inh: >57; Anthrax LT inh: -0.4%
COc1ccc(NC(=O)Cn2cnc3c(cnn3-c3ccc(C)c(C)c3)c2=O)c(OC)c1 in the list: SmPrx2 inh: >57; Anthrax LT inh: -8.1%

The list goes on:
SMILES	SmPrx2 inh	Anthrax LT inh
O=C(NC(Cc1c[nH]c2ccccc12)c1nnc2n1CCCCC2)c1cccs1 (configuration not stated)	>57	-15.7%
O=C(CN1C(=O)NC2(CCc3ccccc32)C1=O)c1ccc2c(c1)OCCO2 (configuration not stated)	>57	-5.5%
O=C(C1CCN(S(=O)(=O)c2ccc3ccccc3c2)CC1)N1CCN(c2ncccn2)CC1	>57	?
CCCCNC(=O)c1cc2c(=O)n3cccc(C)c3nc2n1C	>57	-0.6%
Cc1csc2nc(CNS(=O)(=O)c3ccc(-c4ccccc4)cc3)cn12	>57	-21.8%
CSc1nn(CCc2ccncc2)c(=S)s1	/	6.8%
CCCn1cnc2c(SCC(=O)O)nc(N)nc21	>57	-3.2%[8 µM]
CCOC(=O)CS(=O)(=O)c1ccc2ccccc2c1	>57	/
c1ccc(CCc2nn3c(Cn4cnc5ccccc54)nnc3s2)cc1	>57	8.6%
c1cnc(Oc2ccc3oc4ccccc4c3c2)nc1	>57	-17.4%

Not all compounds are listed, so the mix of outcomes need not match the whole.
